# Compound activity from PubChem.
# miR-21 FLuc: raises the signal of a miR-21 reporter. Potency, µM (doses to about 38.3 µM), for the others: at the highest dose reporter change, positive = more light. 340,000 tested, under 10 active. HeLa miR-21 FLuc reporter, luciferase, 48 h; active = well fitted rising curve with a large enough effect; inconclusive = small, poorly fitted or top-dose-only effect; inactive = no such curve, though single readings can be large or run the other way;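 also: % of control where 0% means no effect; miR-21 action dims this reporter so a rising signal means less miR-21 action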
#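 Luminescence from a firefly luciferase reporter carrying a miR-21 binding site downstream, stably expressed under a CMV promoter in HeLa cells that make miR-21 endogenously, reports miRNA modulation after 48 h compound exposure up to approximately 40uM final.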
# Rango complex inh: Rango-importin beta binding inhibition | hit rate 0.031% among 340,000 | Q14974 | Potency, µM (top dose mostly 92.2 µM), without a hit: at the top dose inhibition of complex formation | Rango CFP/YFP FRET sensor + importin beta, 45 min; active = rising FRET ratio curve, often small or poorly fitted; inconclusive = mostly compound fluorescence or quenching in the first reads; inactive = flat curves in all reads;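 also: potency is read from the fitted curve at half-maximal effect; 0% = DMSO wells and 100% = buffer wells lacking importin beta; nearly all actives have a fitted effect of over 15% in size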
# Target sequence (Q14974 whole entry, looked up): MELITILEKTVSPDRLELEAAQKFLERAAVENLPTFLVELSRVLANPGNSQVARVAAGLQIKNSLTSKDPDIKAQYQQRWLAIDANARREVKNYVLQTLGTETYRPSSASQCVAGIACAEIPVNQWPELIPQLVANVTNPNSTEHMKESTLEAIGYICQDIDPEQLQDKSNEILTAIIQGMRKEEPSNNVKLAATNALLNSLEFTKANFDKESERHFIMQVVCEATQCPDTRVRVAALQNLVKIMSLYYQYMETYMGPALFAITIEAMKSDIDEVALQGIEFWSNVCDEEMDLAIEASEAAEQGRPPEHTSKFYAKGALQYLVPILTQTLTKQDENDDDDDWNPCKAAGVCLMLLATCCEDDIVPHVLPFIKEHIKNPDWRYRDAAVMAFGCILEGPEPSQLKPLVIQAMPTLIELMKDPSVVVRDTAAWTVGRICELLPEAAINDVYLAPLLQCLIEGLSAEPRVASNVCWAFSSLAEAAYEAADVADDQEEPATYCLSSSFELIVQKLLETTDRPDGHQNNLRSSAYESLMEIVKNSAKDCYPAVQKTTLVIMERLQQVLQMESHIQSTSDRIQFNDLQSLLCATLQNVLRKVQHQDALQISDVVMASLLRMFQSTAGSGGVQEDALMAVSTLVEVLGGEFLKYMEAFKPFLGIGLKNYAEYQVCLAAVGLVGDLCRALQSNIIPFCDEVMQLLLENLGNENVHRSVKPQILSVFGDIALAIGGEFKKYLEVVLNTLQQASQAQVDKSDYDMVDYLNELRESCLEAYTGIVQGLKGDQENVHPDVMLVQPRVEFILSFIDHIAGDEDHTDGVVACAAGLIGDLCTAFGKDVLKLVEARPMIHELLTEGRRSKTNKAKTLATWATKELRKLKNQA
#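 FRET biosensor Rango (snurportin 1 IBB between N-terminal EYFP and C-terminal Cerulean), 50 nM in PBS/1 mM DTT/0.02% Tween-20/0.1% BSA, preincubated 5 min RT with compound; 0.125 microM importin beta added, 45 min RT, CFP/YFP FRET ratio read.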
# GLA inh pH 4.5: blocks human alpha-galactosidase A at pH 4.5 | activity change, negative = inhibition, % at 105 µM | AID 1467 | purified enzyme, 4-MU-alpha-Gal fluorescence, pH 4.5 | 230,000 tested, under 10 active | P06280; inconclusive = small, poorly fitted or top-dose-only inhibition, or a rising curve; inactive = flat fitted curve, though single readings scatter; no compound was filed as active;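 also: 0% = full activity with enzyme and -100% = basal without enzyme; dose as in the result columns while the protocol names 77 µM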
# Rango release inh: prevents RanGTP from dissociating the Rango-importin beta complex | O95149+P62826 | Biochemical FRET Rango-importin beta, RanGTP-induced dissociation | Potency, µM (top dose mostly 46.1 µM), for the others: at the top dose activity change, negative = inhibition | hit rate 0.071% among 340,000 | AID 540253; active means falling FRET ratio curve, often poorly fitted, with flat reads before Ran was added; inconclusive means other falling curves, or compound fluorescence or quenching; inactive means flat or rising ratio curve;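 also: potency is read from the fitted curve at half-maximal effect; % of control where 0% means no effect; nearly all actives have a fitted effect of over 45% in size; -100% = wells without RanGTP and RCC1; the record marks most hits as doubtful in a second field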
#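 Rango/importin beta premix (0.1/0.25 uM final), PBS + 1 mM DTT + 0.02% Tween-20 + 0.1% BSA; cpd 5 min RT; FRET pre-read; + RanGTP-RCC1 (0.6 uM Ran, 2 mM GTP, 0.2 uM RCC1); 45 min RT; FRET post-read, ex 430, em 486/530 nm.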
# * = called active by the depositor; ? = inconclusive; / = no result given; & = joins results of further samples. This is a subset (hit frequency here may not be typical).
SMILES,miR-21 FLuc,Rango complex inh,GLA inh pH 4.5,Rango release inh
COc1ccc(C(O)P(=O)(OC(C)C)OC(C)C)cc1 (configuration not stated),-1.2%,2.9%,2.7,-14.0%
CN(C)CCn1cnc2ccccc21,-4.6%,3.1%,9.1,-5.1%
COc1ccc(CC2(CCc3ccncc3)C(=O)NC(=O)NC2=O)cc1,-13.7%,1.1%,8.2,-17.3%
COC(=O)Cn1cc(C=C2C(=O)N(C)C(=O)N(C)C2=O)c2ccccc21,-1.4%,-0.3%,/,0.7%
O=C1CSC2(CN3CCC2CC3)N1 (configuration not stated),-0.1%,-2.1%,2.3,28.1%
CN(C)c1nc(N(C)C)nc(N(C#N)CCCl)n1,-2.7%,5.0%,3.9,-2.8%
O=P(Nc1cccnc1)(Oc1ccccc1Cl)Oc1ccccc1Cl,-3.7%,-7.3%,6.9,-22.8%
C[C@@H]1C2C[C@@]34COC(=O)C3=CC=C[C@H]4[C@@]13C[C@H](c1ccoc1)O[C@@H]3O2,2.9%,0.0%,1.2,4.3%
COC(=O)C1=C(c2ccc3ccccc3c2)C[C@@H]2CC[C@H]1N2C(=O)N1CCCC1,/,-3.8%,/,-7.3%
C[C@]12CCC3C(CC[C@H]4C[C@H](O)CC[C@]34C)C1[C@@H](O)C[C@@H]2O (some centres not stated),/,-3.2%,/,-3.7%
CC(N)Cc1c[nH]c2c1ccc1ccccc12 (configuration not stated),-9.4%,-0.1%,/,1.7%
COc1cc([C@@H]2c3cc4c(cc3[C@@H](OC)[C@H]3COC(=O)[C@H]23)OCO4)cc(OC)c1O,21.6%,-0.9%,1.9,1.2%
O=C(c1cc(-c2cccc(Cl)c2)on1)N1CCOCC1,-88.6%,6.5%,/,9.0%
COc1cc2c(cc1OC)C1C(=O)c3ccc4c(c3OC1CO2)CC(C(C)C)O4 (configuration not stated),/,4.8%,/,1.9%
O=C1NC(=O)C2(CCN(c3ccccc3)CC2)C(=O)N1,/,0.1%,/,0.0%
Oc1c(Cl)c(Cl)c(Cl)c(Cl)c1Cl,/,-1.4%,-4.9,-11.8%
COc1cc(C)cc(CN2CC=C(c3ccccc3)CC2)c1O,-2.4%,5.9%,-11.4,0.0%
CC1CCOC(=O)C=CC=CC(=O)OC2CC3OC4C5OC5(C)C(O)CC4(COC(=O)C1O)C2(C)C31CO1 (configuration not stated),/,3.1%,/,-15.7%
CC12CCC3C(CCC4(O)CC(O)CCC34C=O)C1(O)CCC2C1=CC(=O)OC1 (configuration not stated),/,6.3%,/,20.3%
CCc1nnc(NS(=O)(=O)c2ccc(N=Cc3c(O)n(-c4ccccc4)c(=O)[nH]c3=O)cc2)s1,-0.1%,0.8%,-2.6,2.6%

# Record cards (already shown).
# O=C(c1cc(-c2cccc(Cl)c2)on1)N1CCOCC1 as listed: miR-21 FLuc = -88.6%; Rango complex inh = 6.5%; GLA inh pH 4.5 = /; Rango release inh = 9.0%
# COc1ccc(CC2(CCc3ccncc3)C(=O)NC(=O)NC2=O)cc1 as listed: miR-21 FLuc = -13.7%; Rango complex inh = 1.1%; GLA inh pH 4.5 = 8.2; Rango release inh = -17.3%
# O=C1NC(=O)C2(CCN(c3ccccc3)CC2)C(=O)N1 as listed: miR-21 FLuc = /; Rango complex inh = 0.1%; GLA inh pH 4.5 = /; Rango release inh = 0.0%

# The list continues:
SMILES,miR-21 FLuc,Rango complex inh,GLA inh pH 4.5,Rango release inh
O=C(CCCCCn1c(=S)[nH]c2ccccc2c1=O)N1CCC2(CC1)OCCO2,-5.6%,-0.1%,-16.0,8.0%
CC(=O)O[C@H]1CC[C@@]2(C)C(=CC(=O)C3C2CC[C@@]2(C)C3C[C@H](OC(C)=O)[C@@H]2OC(C)=O)C1 (some centres not stated),/,-0.2%,/,9.4%
COc1ccc(C(O)c2ccccc2OP(=O)(N(C)C)N(C)C)cc1 (configuration not stated),-1.0%,-1.1%,2.7,12.5%
O=C1CN=C(c2ccccc2)c2cc(Br)ccc2N1,-3.5%,-4.4%,/,10.6%
Brc1ccc(CN2CCNCC2)s1,-2.8%,2.4%,8.1,2.3%
CN(C)CC#CCn1c2ccccc2c2ccccc21,-10.7%,-3.0%,0.5,-5.5%
C[N+](C)(C)CC1CCCC(C[N+](C)(C)C)C1=O (configuration not stated),/,3.2%,/,-0.6%
C=CCN1CC[C@]23c4c5ccc(O)c4O[C@H]2C(=O)CC[C@@]3(O)[C@H]1C5,0.7%,0.2%&0.8%,-6.2&-1.5,1.4%&8.8%
CCC(=Nc1ccc2c(c1)CCC2)c1c(O)n(C)c(=O)n(C)c1=O,-0.7%,0.6%,1.3,-1.7%
CC12C=CC(=O)C=C1CCC1C2C(O)CC2(C)C1CCC2(C)O (configuration not stated),/,3.0%,/,0.2%
O=P(Nc1ccccc1)(Nc1ccccc1)Oc1ccc(Cl)cc1,12.5%,-2.1%,-2.1,0.1%
O=[N+]([O-])/C=C/c1c(Cl)cccc1Cl,/,-0.4%,/,-6.7%
COC(=O)C1=C(c2ccc(C(C)=O)cc2)C[C@@H]2CC[C@H]1N2C(=O)NCCCOC(C)C,/,-0.1%,/,-2.3%
CCCC(C)CC1(CCO)C(=O)NC(=S)NC1=O (configuration not stated),/,0.0%,/,4.8%
CC1[C@H]2Cc3ccc(O)cc3[C@]1(C)CCN2CCc1ccccc1 (some centres not stated),/,-0.9%,/,0.6%
COc1ccc(N2C(=O)NC(=O)/C(=C\c3cn(CC(=O)N4CCOCC4)c4ccccc34)C2=O)c(OC)c1,0.5%,-1.8%,/,-17.5%
CC1CCC(C(C)C)C(OC(=O)COC(=O)c2ccccc2N)C1 (configuration not stated),0.0%,0.5%,16.4,3.6%
O=C(c1ccc(CS(=O)(=O)c2ccc(Br)cc2)o1)N1CCC2(CC1)OCCO2,-3.2%,0.1%,2.2,19.0%
Cc1ccc(S(=O)(=O)N2CCCC2c2cccnc2)cc1 (configuration not stated),0.5%,-1.3%,-4.7,2.1%
COc1c(/C=C2/C(=O)NC(=O)N(C)C2=O)c(CCN(C)C(=O)c2ccccc2)cc2c1OCO2,-3.0%,1.1%,/,15.6%

# 2 of these compounds in another layout:
Molecule | miR-21 FLuc | Rango complex inh | GLA inh pH 4.5 | Rango release inh
O=C(c1ccc(CS(=O)(=O)c2ccc(Br)cc2)o1)N1CCC2(CC1)OCCO2 | -3.2% | 0.1% | 2.2 | 19.0%
Cc1ccc(S(=O)(=O)N2CCCC2c2cccnc2)cc1 (configuration not stated) | 0.5% | -1.3% | -4.7 | 2.1%

# The listing continues.
SMILES,miR-21 FLuc,Rango complex inh,GLA inh pH 4.5,Rango release inh
O=P(/C(=N/O)N1CCCCC1)(N1CCOCC1)N1CCOCC1,0.0%,-1.8%,-0.3,-0.4%
Cn1c(O)c(C=Nc2cccc(C(F)(F)F)c2)c(=O)n(C)c1=O,-0.5%,-2.0%,/,-4.9%
COc1ccccc1N1CCN(Cc2ccccc2Cl)CC1,-3.7%,-2.2%,1.9,-11.1%
CN1CCc2nc(SCc3ccccc3Br)c(C#N)cc2C1,3.1%,-3.5%,-9.2,9.2%
CN1C(=O)CN=C(c2ccccc2)c2cc(Cl)ccc21,-2.8%,/,-23.2,/
O=C1CC(=O)N(c2ccc(Cl)cc2)C(=O)N1,-1.9%,?,/,-13.8%
CC(C)=CCN1CC[C@@]2(C)c3cc(O)ccc3C[C@@H]1C2C (some centres not stated),/,0.0%,/,-21.2%
CC(=O)C1CCC2C3CCC4CC(O)CCC4(C)C3C(=O)CC12C (configuration not stated),/,-0.3%,/,0.2%
CN(C)c1ccc(C(=O)c2ccc(N(C)C)cc2)cc1,-18.0%,?,-0.7,?
N#C[C@H](O[C@@H]1O[C@H](CO[C@@H]2O[C@H](CO)[C@@H](O)[C@H](O)[C@H]2O)[C@@H](O)[C@H](O)[C@H]1O)c1ccccc1,/,-1.6%,/,-7.1%
O=C1CC(c2cccnc2)=NN1c1ccccc1,-11.2%,-0.2%,-2.7,-2.9%
CCCC1(CCC)C(=O)NC(=Nc2ccccc2)NC1=O,1.7%,0.4%,2.9,0.9%
NP(=O)(OCCCc1ccccc1)c1ccccc1 (configuration not stated),-3.6%,4.8%,/,0.5%
CC(C)OC(=O)C1C2c3ccccc3C(c3ccccc32)C1C(=O)O (configuration not stated),1.1%,1.7%,-9.6,-9.2%
O=C1NC(=O)C2(Cc3ccccc3N3CCCC32)C(=O)N1c1ccc(Cl)cc1 (configuration not stated),-5.2%,?,-0.6,?
COc1ccc2[nH]c(C)c(CCNCc3cn(C)c4ccccc34)c2c1,/,0.9%,/,8.8%
CN1CCCN(C(=O)COc2ccccc2Br)CC1,-2.3%,2.9%,/,17.0%
CCCCn1c(=O)c(C(=O)NCc2ccco2)c(O)c2ccccc21,-3.7%,-0.4%,-5.1,6.5%
CCCCCCCSc1cc(OC)c(CCNC)cc1OC,1.7%,2.1%,-2.3,-13.7%
COC(=O)C1=C(c2ccccc2OCc2ccccc2)C[C@@H]2CC[C@H]1N2C(=O)NCc1ccc(C(C)(C)C)cc1,/,-3.2%,/,9.4%
COC1=C(C)C(=O)C2=C(C1=O)C(CO)N1C(C#N)C3CC4C(C1C2N1CCOC41)N3C (configuration not stated),/,?,/,-18.5%
COC(=O)C1=C(c2ccc(OC)c(OC)c2)C[C@@H]2CC[C@H]1N2C(=O)NCCOc1ccc(OC)cc1,/,0.0%,/,1.3%
CC(Cc1ccccc1)NC(=O)Cc1ccc([N+](=O)[O-])cc1 (configuration not stated),-6.5%,4.8%,/,-21.1%
Nc1ccc(CCN2CCCC2)cc1,-5.8%,-2.9%,/,-1.8%
c1cncc(C2CC(c3cccs3)n3ncnc3N2)c1 (configuration not stated),-0.1%,1.1%,-1.0,1.4%
O=c1[nH]c(O)c(N=Nc2ccc3c(c2)OCCO3)c(=O)[nH]1,-2.3%,14.8%,-13.8,19.3%
N#CC1c2ccccc2-n2nncc2CN1S(=O)(=O)c1ccccc1 (configuration not stated),/,4.8%,/,-3.0%
CN(C)C1(c2nnnn2-c2ccc(Cl)cc2)CCCCC1,-10.2%,-3.2%,-4.4,-7.3%
COc1ccc(C(C)=O)cc1CC(C(=O)c1ccc(C)cc1)N(C)C (configuration not stated),-9.3%,5.0%,1.5,2.3%
CC1CCN(CC#CCOc2ccc(Cl)cc2)CC1,-11.6%,-2.0%,/,19.2%
COc1ccc(CCNCc2ccccc2F)cc1,-14.1%,?,/,-15.1%
O=c1oc2ccccc2c(O)c1C(c1ccccn1)c1c(O)c2ccccc2oc1=O,-6.8%,-0.2%,-8.0,13.8%
O=C1/C(=C\c2cc3c(cc2Cl)OCO3)N2CCC1CC2,-8.9%,1.7%,4.7,14.4%
CCC(C)N1CCN(C(=O)Cc2ccccc2)CC1 (configuration not stated),-7.4%,-0.9%,11.1,8.2%
CCOC(=O)CN1C(=O)C2(C(C#N)=C(N)Oc3ccccc32)C(C(=O)OC)=C1C (configuration not stated),-9.5%,0.6%,5.8,-4.7%
CCCNC(=O)N1[C@H]2CC[C@@H]1C(C(=O)OC)=C(c1ccc(F)cc1F)C2,/,2.5%,/,-5.8%
O=c1c2ccccc2nc(-c2ccccc2)n1-c1nccs1,-0.4%,-3.6%,-3.7,-2.9%
CCCCN1C(=O)NC(=O)C2(Cc3c(nc4c(C)cccn4c3=O)N3CCc4ccccc4C32)C1=O (configuration not stated),-1.2%,-2.0%,-5.4,-23.0%
CN1CC(C(=O)c2ccc(Cl)cc2)C(c2ccc(N(C)C)cc2)C1 (configuration not stated),-1.5%,0.4%,-5.6,-10.9%
Nc1ccc(Oc2cccc(Oc3ccc(N)cc3)c2)cc1,?,-5.3%,-20.3,21.6%
NCCc1ccc(S(N)(=O)=O)cc1,-3.2%,-1.1%,4.8,-6.1%
CCOc1cc(CNCCc2c[nH]c3ccccc23)cc(Cl)c1OC,-0.1%,1.1%,-12.3,-8.5%
C[C@H]1C[C@@H](C)C(=O)[C@@H]([C@H](O)CC2CC(=O)NC(=O)C2)C1,?,3.1%,3.5&5.1,-10.7%
CC[N+](C)(CC)CCCOC(=O)C(O)(c1ccccc1)C1CCCCC1 (configuration not stated),-2.0%,-1.2%,-2.8,-4.2%
